Assay outcomes from PubChem.
Yeast UUG start: alters start codon recognition fidelity in yeast | activity score, % at 18.7 µM | S. cerevisiae UUG-firefly luciferase reporter, luminescence/redox ratio | 350,000 tested, 0.13% active;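 active = replicate mean at a twofold rise or more, about +100% in these data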;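 also: firefly luciferase made from a UUG start codon reports start codon fidelity; reporter light over untreated wells divided by growth signal over untreated wells; some hits fall short of that in this replicate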
HIV Env fusion: inhibitors of HIV Env-mediated cell fusion; inhibition, % at 12.3 µM; 360,000 tested, 1.1% active; HeLa-JRFL Env/CEM21 cell fusion, luciferase;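 active = mean replicate inhibition score of at least 50 and every replicate individually at or above 50; inconclusive = only one of the two criteria met; inactive = mean below 50 and not all replicates reaching 50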;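 also: 0% = plate neutral controls and 100% = maraviroc near 300 nM; one replicate is shown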
PABP polyA inh: blocks human PABP binding to poly(A) RNA; 290,000 tested, 1% active; fluorescence polarization; P11940; inhibition, % at 35 µM;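 active = 50% or more with normal probe brightness, or confirmed in later tests; inconclusive = above 50% with abnormal brightness, or retests that disagree; inactive = below 50% or failed in later tests; about a fifth of its hits are not listed in these tables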;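 also: calls also rest on retests at 20 µM and on dose response follow-up; controls were probe without protein and protein plus probe with vehicle; some compounds called inactive have numbers as strong as hits; many hits fall short of the cut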
Target sequence (P11940 whole entry, looked up): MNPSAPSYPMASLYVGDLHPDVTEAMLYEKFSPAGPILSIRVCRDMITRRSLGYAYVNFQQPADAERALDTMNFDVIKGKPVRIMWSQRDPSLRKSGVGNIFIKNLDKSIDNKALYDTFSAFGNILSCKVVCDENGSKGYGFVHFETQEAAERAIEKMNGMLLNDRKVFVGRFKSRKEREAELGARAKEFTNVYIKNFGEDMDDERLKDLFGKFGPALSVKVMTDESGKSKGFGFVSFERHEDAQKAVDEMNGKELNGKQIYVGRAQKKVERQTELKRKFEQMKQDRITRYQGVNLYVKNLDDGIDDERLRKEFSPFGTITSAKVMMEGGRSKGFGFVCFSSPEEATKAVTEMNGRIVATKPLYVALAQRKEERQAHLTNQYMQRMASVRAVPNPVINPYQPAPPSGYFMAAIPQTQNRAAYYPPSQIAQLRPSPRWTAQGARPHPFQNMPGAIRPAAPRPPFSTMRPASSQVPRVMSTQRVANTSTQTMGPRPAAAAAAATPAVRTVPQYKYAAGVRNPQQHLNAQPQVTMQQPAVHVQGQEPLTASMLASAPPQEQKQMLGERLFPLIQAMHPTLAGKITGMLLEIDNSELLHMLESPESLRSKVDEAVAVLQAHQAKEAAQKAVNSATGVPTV
CSC inhib: blocks cancer stem cells. inhibition, % at 7.5 µM. AID 2717. cancer stem cell-like cells viability, luminescence. 300,000 tested, 1.1% active;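 active = mean at 75% or more and at least half the replicates too; inconclusive = mean and replicates disagree; tested in HMLE shEcad cells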;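 also: 0% = median of negative and 100% = median of positive control wells; the first replicate is given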
eIF4H inh: inhibitors of RNA binding by human eIF4H. Q15056. eIF4H fluorescence polarization binding assay. inhibition, % at 35 µM. 290,000 tested, 0.94% active. AID 2012;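 active = 50% or more with normal probe brightness, or confirmed in later tests; inconclusive = above 50% with abnormal brightness, or retests that disagree; inactive = below 50% or failed in later tests; about a fifth of its hits are not listed in these tables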;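 also: calls also rest on retests at 20 µM and on dose response follow-up; 0% = protein and probe with vehicle and 100% = probe without protein; strong numbers were not always called active; many hits fall short of the cut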
MT1-MMP act inh: inhibitors of human MT1-MMP activation; GFP/RFP ratio change, % at 20 µM; AID 651647; 360,000 tested, 0.061% active; P50281; HT1080 RFP-PRO-GFP cells, GFP/RFP ratio fluorescence, overnight; percent of plate control window, DMSO zero;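 active = GFP/RFP ratio change of at least 30% with cell ATP level not reduced by more than half and red fluorescence within 50% of control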; also: strong numbers were not always called active
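Compound: 20 µM single dose, 1% DMSO / System: HT1080 RFP-PRO-GFP cells / Controls: DMSO and RFP-L50D-GFP cell wells / Read-out basis: GFP/RFP fluorescence ratio / Schedule: overnight compound exposure at 37 °C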
Rce1 inhib: inhibitors of yeast Ras-converting enzyme. yeast membranes, quenched prenylated peptide cleavage fluorescence. 290,000 tested, 0.27% active. calls only. AID 2563;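 active = fall in fluorescence gain of 50% or more versus controls, with final raw signal at or below 3038400; inconclusive = same 50% fall but final raw signal above 3038400; inactive = fall in fluorescence gain under 50%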;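 also: plate controls were neutral control wells for no effect and wells lacking membranes for full effect; tested at 10 µM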
eIF4H inh retest: also measured in eIF4H inh; calls as there; inhibition, %; compound at 20 µM; confirmation average;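 mean of two retest wells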
PABP polyA inh retest: second read-out of PABP polyA inh, no call of its own (marks repeat the call); inhibition, %; compound at 20 µM; confirmation repeats;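 mean of two retest wells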
MT1-MMP act inh RFP: recorded beside MT1-MMP act inh, whose call it bears; RFP signal change, %; measured here: RFP expression control read;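 0 = vehicle wells; hits needed this value within 50% of zero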
* = called active by the depositor; i = inactive; ? = inconclusive; . = no result given. This is a subset; rates above refer to the full screens.

SMILES | Yeast UUG start | HIV Env fusion | PABP polyA inh | CSC inhib | eIF4H inh | MT1-MMP act inh | MT1-MMP act inh RFP | Rce1 inhib | others
Cc1ccc(-c2nc3ccccc3c(=O)n2-c2cccc(O)c2)cc1 | . | 20 | 41 | -23 | 67 | -8 | -2 | i | eIF4H inh retest=13;PABP polyA inh retest=20
NC(=O)Nc1cccc(C(F)(F)F)c1 | 0 | -311 | 6 | 4 | -5 | -2 | 1 | i
COc1ccc(-n2c(O)c(C(C)=NCc3ccc4c(c3)OCO4)c(=O)[nH]c2=O)cc1 | . | -6 | 24 | -7 | 3 | 5 | -1 | i
COC(=O)c1cncn1C(C)c1ccccc1 (stereo not given) | -3 | -160 | 17 | -2 | -11 | -4 | 1 | i
CCCC12CN3CCN(C1)CC(CCC)(C3)C2=O | -4 | -7 | -6 | -23 | -6 | -5 | -3 | i
C=CCSc1nc2c(c(-c3ccsc3)c1C#N)CN(C)CC2 | -14 | 5 | 23 | 0 | 19 | -11 | 9 | i
CCOc1nc(NC(C)C)nc(N2CC3CC(C2)c2cccc(=O)n2C3)n1 (stereo not given) | -15 | 22 | 4 | -2 | -1 | 1 | 2 | i
CC(C)[C@]12O[C@H]1[C@@H]1O[C@]13[C@]1(O[C@H]1C[C@H]1C4=C(CC[C@@]13C)C(=O)OC4)[C@@H]2O | . | . | -10 | 9 | 2 | . | . | i
CCCCN=C[C@]12CCC(O)CC1(O)CCC1[C@@H]2CC[C@]2(C)[C@H](C3C=CC(=O)O3)CCC12O (stereo not given in full) | -6 | 82* | -2 | 99* | -9 | -51 | -39 | i
CC1CN=C(NCc2ccc(F)cc2)S1 (stereo not given) | . | -21 | -8 | -5 | -4 | 2 | 6 | i

Gathered by group, those above containing nitrogen in an aromatic ring
SMILES | Yeast UUG start | HIV Env fusion | PABP polyA inh | CSC inhib | eIF4H inh | MT1-MMP act inh | MT1-MMP act inh RFP | Rce1 inhib | others
Cc1ccc(-c2nc3ccccc3c(=O)n2-c2cccc(O)c2)cc1 | . | 20 | 41 | -23 | 67 | -8 | -2 | i | eIF4H inh retest=13;PABP polyA inh retest=20
COc1ccc(-n2c(O)c(C(C)=NCc3ccc4c(c3)OCO4)c(=O)[nH]c2=O)cc1 | . | -6 | 24 | -7 | 3 | 5 | -1 | i
COC(=O)c1cncn1C(C)c1ccccc1 (stereo not given) | -3 | -160 | 17 | -2 | -11 | -4 | 1 | i
C=CCSc1nc2c(c(-c3ccsc3)c1C#N)CN(C)CC2 | -14 | 5 | 23 | 0 | 19 | -11 | 9 | i
CCOc1nc(NC(C)C)nc(N2CC3CC(C2)c2cccc(=O)n2C3)n1 (stereo not given) | -15 | 22 | 4 | -2 | -1 | 1 | 2 | i

(listing goes on)
SMILES | Yeast UUG start | HIV Env fusion | PABP polyA inh | CSC inhib | eIF4H inh | MT1-MMP act inh | MT1-MMP act inh RFP | Rce1 inhib | others
O=c1c2ccccc2nc(Cc2ccccc2)n1-c1ccccc1O | 11 | 4 | 0 | 1 | -3 | -3 | -3 | i
O=C1CC(c2cccnc2)=NN1c1ccc(Cl)cc1Cl | . | 22 | 4 | -12 | 4 | 7 | 3 | i
O=c1[nH]c(CN2CC=C(c3ccccc3)CC2)nc2scc(-c3ccccc3)c12 | . | -17 | -13 | 81* | -10 | -18 | 0 | i
O=C(N/N=C1/CN2CCC1CC2)c1cccc(O)c1 | -8 | -13 | -2 | . | -2 | -2 | 2 | i
C/C(=N\N1CCCCCC1)c1c(O)n(-c2ccc(Cl)cc2)c(=O)[nH]c1=O | -6 | 2 | -6 | 4 | 0 | 0 | -3 | i
Cc1c(C=C2C(=O)N(C)C(=O)N(C)C2=O)c(=O)n(-c2ccccc2)n1C | . | 15 | 8 | -9 | ? | -5 | -1 | i
CNC(C(=O)c1ccccc1)C(OC)c1cccc([N+](=O)[O-])c1 (stereo not given) | . | 4 | 0 | -8 | -2 | -4 | 2 | i
CCC(=Nc1ccc(OC)cc1OC)c1c(O)n(C)c(=O)n(C)c1=O | -10 | . | -2 | 5 | 5 | 8 | -3 | i
CS(=O)(=O)NCc1nnc2n1-c1ccc(Cl)cc1C(c1ccccc1)=NC2 | -10 | -4 | 3 | . | 1 | -5 | 0 | i
O=c1[nH]c(=S)[nH]c(O)c1C(c1ccccn1)c1c(O)[nH]c(=S)[nH]c1=O | . | -1 | -5 | -9 | -2 | -3 | 1 | i
O=P(NC(c1ccccc1)c1ccccc1)(Oc1ccccc1)Oc1ccccc1 | -12 | 26 | 4 | -6 | 3 | 2 | -1 | i
N=c1c[n+](CC23CC4CC(CC(C4)C2)C3)[n-]o1 | 4 | . | -6 | -17 | -3 | 3 | -3 | i
CCN1CCN(Cc2ccc(OC(F)(F)F)cc2)CC1 | -5 | 4 | 8 | 4 | -5 | -3 | 4 | i
O=c1cccc2n1CC1CC2CN(Cc2c(Cl)cccc2Cl)C1 (stereo not given) | 11 | 7 | 23 | -3 | -12 | -4 | -1 | i
COC(=O)C1=C(c2ccc(OCc3ccccc3)cc2)C[C@@H]2CC[C@H]1N2C(=O)NCc1ccc(F)cc1 | -4 | -124 | . | . | . | -10 | -19 | .
COC(=O)CC1=C(C(=O)OC)C2(C(=O)Nc3c(C)cccc32)C(C#N)=C(N)O1 (stereo not given) | -8 | 11 | 9 | -4 | -2 | -5 | 5 | i
Fc1ccc(N2CCN(Cc3ccc4c(c3)OCO4)CC2)cc1 | -4 | -9 | 0 | 26 | 3 | -4 | -2 | i
CC(C)(C)c1ccc(S(=O)(=O)N2CC3CC(C2)c2cccc(=O)n2C3)cc1 (stereo not given) | -1 | . | -2 | -5 | -5 | 5 | -2 | i
ClC(Cl)(Cl)c1ccccc1 | -18 | . | . | -7 | . | -1 | 4 | .
COc1ccc(CN2CCN(C(=O)Cc3ccccc3)CC2)cc1OC | 1 | -6 | . | . | . | -4 | 1 | .
Cc1cc(=O)oc2cc3c(cc12)CCCN3 | -15 | -28 | 0 | -2 | -6 | 0 | 4 | i
COc1ccc(NC(c2ccccc2)P(=O)(Oc2ccccc2)Oc2ccccc2)cc1 (stereo not given) | . | 0 | 1 | 20 | 10 | 2 | 2 | i
c1cc2n(c1)-c1c(ccc3c1OCO3)CNC2c1ccc2c(c1)OCO2 (stereo not given) | . | . | -2 | 22 | -4 | 1 | 2 | i
CCOC(=O)c1nc2ccccc2c(=O)n1-c1ccc(C)cc1 | 0 | . | 7 | . | -5 | 2 | -4 | i
COC(=O)C1=C(c2ccc(C(C)=O)cc2)C[C@@H]2CC[C@H]1N2C(=O)NCCO | -16 | 8 | . | -18 | . | 0 | 2 | .
CC1(C)CN=C(NCc2ccccc2)S1 | 1 | -9 | . | -3 | . | 1 | 0 | i
CCN1C(=O)N(CC)C(=O)C2(Cc3ccccc3N3CCN(c4ccccc4)CC32)C1=O (stereo not given) | -15 | 23 | 7 | -4 | 5 | 3 | 5 | i
COC(=O)C(O)(c1ccc(NC(=O)NC2CCCCC2)cc1)C(F)(F)F (stereo not given) | 7 | -53 | 4 | -14 | 3 | 3 | 0 | i
CCN1C[C@]2(C)CC[C@H](O)[C@]34C1[C@H](C[C@H]23)[C@@]1(O)C[C@H](OC)[C@H]2C[C@@H]4[C@@H]1C2O (stereo not given in full) | -10 | . | . | -2 | . | 3 | 0 | .
CCNCC(O)c1cccc(O)c1 (stereo not given) | 4 | -3 | 11 | -3 | -11 | 3 | 5 | i

Quoted from the listing (6 entries):
SMILES | Yeast UUG start | HIV Env fusion | PABP polyA inh | CSC inhib | eIF4H inh | MT1-MMP act inh | MT1-MMP act inh RFP | Rce1 inhib | others
c1cc2n(c1)-c1c(ccc3c1OCO3)CNC2c1ccc2c(c1)OCO2 (stereo not given) | . | . | -2 | 22 | -4 | 1 | 2 | i
CCOC(=O)c1nc2ccccc2c(=O)n1-c1ccc(C)cc1 | 0 | . | 7 | . | -5 | 2 | -4 | i
COC(=O)C1=C(c2ccc(C(C)=O)cc2)C[C@@H]2CC[C@H]1N2C(=O)NCCO | -16 | 8 | . | -18 | . | 0 | 2 | .
CC1(C)CN=C(NCc2ccccc2)S1 | 1 | -9 | . | -3 | . | 1 | 0 | i
CCN1C(=O)N(CC)C(=O)C2(Cc3ccccc3N3CCN(c4ccccc4)CC32)C1=O (stereo not given) | -15 | 23 | 7 | -4 | 5 | 3 | 5 | i
COC(=O)C(O)(c1ccc(NC(=O)NC2CCCCC2)cc1)C(F)(F)F (stereo not given) | 7 | -53 | 4 | -14 | 3 | 3 | 0 | i

New compounds follow.
SMILES | Yeast UUG start | HIV Env fusion | PABP polyA inh | CSC inhib | eIF4H inh | MT1-MMP act inh | MT1-MMP act inh RFP | Rce1 inhib | others
COC1=CC(=O)O[C@@H](/C=C/c2ccccc2)C1 | -15 | -29 | . | -8 | . | 4 | 5 | .
CCc1c(C)nc(N)nc1N1N=C1SCCOc1ccccc1 | -15 | 15 | 4 | 7 | 4 | 1 | 0 | i
CCOP(=O)(OCC)C(O)c1ccccc1 (stereo not given) | -18 | 12 | 2 | 7 | -12 | -1 | 3 | i
C=CCC1(CN2CCCCCC2=O)C(=O)NC(=O)NC1=O | -1 | . | -7 | -9 | -1 | 11 | 12 | i
CCOC(=O)C(=CNc1ccc(C(O)(C(=O)OCC)C(F)(F)F)cc1C)C(=O)OCC (stereo not given) | . | 25 | -12 | 11 | -5 | -1 | -5 | i
CC(C)CN(CC(C)C)C(=O)C1C2c3ccccc3C(c3ccccc32)C1C(=O)O (stereo not given) | . | 17 | -3 | . | 12 | 0 | 2 | .
COc1ccccc1N1C(=O)NC(=O)/C(=C\c2cnn(-c3ccccc3)c2)C1=O | -12 | -7 | 10 | 6 | 1 | -1 | 1 | i
Cc1cc(NC(=O)C(Cl)(Cl)Cl)no1 | . | 1 | -6 | . | -3 | 1 | 6 | i
CCOc1ccc([N+](=O)[O-])cc1CNCCc1ccccc1 | -6 | 0 | -14 | 3 | 3 | 1 | 0 | i
O=C(Nc1cccc(C(F)(F)F)c1)OC1CN2CCC1CC2 (stereo not given) | -15 | 1 | -2 | . | -1 | 1 | 4 | i
O=c1c2ccccc2nc(/C=C/c2ccc(F)cc2)n1-c1ccccc1O | -13 | 20 | -10 | 50 | 19 | -6 | -3 | i
N#CC1=C(N)Oc2c(c(=O)oc3ccccc23)C1c1ccc([N+](=O)[O-])o1 (stereo not given) | . | 1 | 28 | -14 | 28 | -8 | 7 | i
O=C1NC(=O)C(=Cc2ccc(OCCOc3ccc([N+](=O)[O-])cc3)cc2)C(=O)N1 | . | 12 | -7 | 2 | 28 | 8 | 0 | i
CCOC(=O)C1(CCCc2ccccc2)CCN(C2CCCC2)CC1 | -9 | 6 | -6 | 8 | 3 | 0 | 1 | i
CN(C)c1ccc(C=C2C(=O)NC(=S)NC2=O)cc1 | -24 | -9 | . | . | . | 1 | 5 | .
COC(=O)C1=C(c2ccccc2OCc2ccccc2)C[C@@H]2CC[C@H]1N2C(=O)NCCc1ccc(F)cc1 | -2 | 32 | . | 22 | . | -9 | -7 | .
COC(=O)C1=C(c2c(C)noc2C)C[C@@H]2CC[C@H]1N2C(=O)NCc1ccco1 | -15 | -5 | . | -12 | . | 0 | 0 | .
O=S(=O)(c1ccc(Cl)cc1)c1ccc(Cl)cc1 | -10 | . | . | 4 | . | 1 | 0 | .
CCCCn1c(O)c(C=NCCN2CCCCC2)c(=O)[nH]c1=O | -20 | . | 4 | -13 | 11 | -1 | 4 | i
O=C(NCCO)c1nsnc1NCCCl | . | 0 | 13 | . | 7 | -1 | 0 | i
